# Source: PubChem (several laboratories)
# Rce1 inhib: inhibitors of yeast Ras-converting enzyme; hit rate 0.27% among 290,000; Q03530; calls only; yeast membranes, quenched prenylated peptide cleavage fluorescence;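 active means fall in fluorescence gain of 50% or more versus controls, with final raw signal at or below 3038400; inconclusive means same 50% fall but final raw signal above 3038400; inactive means fall in fluorescence gain under 50%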;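 further: plate controls were neutral control wells for no effect and wells lacking membranes for full effect; tested at 10 µM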
# Yeast UUG start: modulators of start codon recognition fidelity in yeast | S. cerevisiae UUG-firefly luciferase reporter, luminescence/redox ratio | activity score, % at 18.7 µM | hit rate 0.13% among 350,000 | AID 602363;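 active means replicate mean at a twofold rise or more, about +100% in these data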;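 further: firefly luciferase made from a UUG start codon reports start codon fidelity; reporter light over untreated wells divided by growth signal over untreated wells; some hits fall short of that in this replicate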
# eIF4H FP inh: inhibitors of RNA binding by human eIF4H; eIF4H fluorescence polarization binding assay; inhibition, % at 35 µM; hit rate 0.94% among 290,000; Q15056;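 active means 50% or more with normal probe brightness, or confirmed in later tests; inconclusive means above 50% with abnormal brightness, or retests that disagree; inactive means below 50% or failed in later tests; about a fifth of its hits are not listed in these tables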;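 further: calls also rest on retests at 20 µM and on dose response follow-up; 0% = protein and probe with vehicle and 100% = probe without protein; strong numbers were not always called active; many hits fall short of the cut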
# CSC inhib: cancer stem cell inhibition; inhibition, % at 7.5 µM; hit rate 1.1% among 300,000; cancer stem cell-like cells viability, luminescence;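 active means mean at 75% or more and at least half the replicates too; inconclusive means mean and replicates disagree; tested in HMLE shEcad cells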;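 further: 0% = median of negative and 100% = median of positive control wells; the first replicate is given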
# Env fusion inh: HIV envelope-mediated fusion inhibition | HeLa-JRFL Env/CEM21 cell fusion, luciferase | inhibition, % at 12.3 µM | hit rate 1.1% among 360,000 | AID 651610;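 active means mean replicate inhibition score of at least 50 and every replicate individually at or above 50; inconclusive means only one of the two criteria met; inactive means mean below 50 and not all replicates reaching 50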;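 further: 0% = plate neutral controls and 100% = maraviroc near 300 nM; one replicate is shown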
# MT1-MMP act inh: MT1-MMP (human) activation inhibition | GFP/RFP ratio change, % at 20 µM | hit rate 0.061% among 360,000 | P50281 | AID 651647 | HT1080 RFP-PRO-GFP cells, GFP/RFP ratio fluorescence, overnight; percent of plate control window, DMSO zero;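 active means GFP/RFP ratio change of at least 30% with cell ATP level not reduced by more than half and red fluorescence within 50% of control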; further: strong numbers were not always called active
#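 Material – HT1080 RFP-PRO-GFP cells · Control set – DMSO wells and RFP-L50D-GFP cells · Incubation – overnight cell settling, then overnight compound exposure, 37 °C, 5% CO2 · Compound dosing – single-point 20 µM compound, 1% DMSO · Read-out – GFP/RFP fluorescence ratio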
# PABP FP inh: PABP-poly(A) binding inhibition; P11940; inhibition, % at 35 µM; PABP-poly(A) RNA binding, fluorescence polarization; hit rate 1% among 290,000;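 active means 50% or more with normal probe brightness, or confirmed in later tests; inconclusive means above 50% with abnormal brightness, or retests that disagree; inactive means below 50% or failed in later tests; about a fifth of its hits are not listed in these tables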;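 further: calls also rest on retests at 20 µM and on dose response follow-up; controls were probe without protein and protein plus probe with vehicle; some compounds called inactive have numbers as strong as hits; many hits fall short of the cut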
# Target sequence (P11940 whole entry, looked up): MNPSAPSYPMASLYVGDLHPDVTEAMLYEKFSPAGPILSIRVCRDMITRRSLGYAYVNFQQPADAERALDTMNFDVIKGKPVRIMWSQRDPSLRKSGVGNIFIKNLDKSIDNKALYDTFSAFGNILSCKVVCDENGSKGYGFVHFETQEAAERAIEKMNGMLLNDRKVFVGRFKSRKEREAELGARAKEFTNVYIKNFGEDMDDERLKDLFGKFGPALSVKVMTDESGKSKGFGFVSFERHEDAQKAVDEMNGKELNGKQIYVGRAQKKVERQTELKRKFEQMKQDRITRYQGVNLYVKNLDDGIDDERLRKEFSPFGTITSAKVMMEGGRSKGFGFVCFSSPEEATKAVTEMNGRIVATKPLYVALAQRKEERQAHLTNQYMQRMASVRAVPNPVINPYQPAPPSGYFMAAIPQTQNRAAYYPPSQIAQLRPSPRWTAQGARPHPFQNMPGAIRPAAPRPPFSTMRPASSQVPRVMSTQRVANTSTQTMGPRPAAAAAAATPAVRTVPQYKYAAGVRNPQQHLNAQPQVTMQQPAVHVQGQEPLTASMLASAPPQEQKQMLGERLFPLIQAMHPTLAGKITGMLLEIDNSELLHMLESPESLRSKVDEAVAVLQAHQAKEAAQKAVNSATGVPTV
# MT1-MMP act inh RFP: also measured in MT1-MMP act inh; calls as there; RFP signal change, %; measured here: RFP expression control read;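 0 = vehicle wells; hits needed this value within 50% of zero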
# Active calls of the source: *; i = inactive; ? = inconclusive; . = no result given; & = joins results of further samples.
SMILES,Rce1 inhib,Yeast UUG start,eIF4H FP inh,CSC inhib,Env fusion inh,MT1-MMP act inh,MT1-MMP act inh RFP,PABP FP inh
CCN(CC)c1ccc(C2C(C(C)=O)C(=O)CC(C)(O)C2C(C)=O)cc1 (stereo unspecified),i,-16,.,.,.,2,2,.
CC(=O)c1ccc(NC(=O)NNS(=O)(=O)c2ccc([N+](=O)[O-])cc2)cc1,i,-3,10,-9,-4,-3,0,-2
COc1ccc(NC(=S)NCCCN2CCN(C3CCCCC3)CC2)cc1,i,-9,5,-3,63*,0,4,14
Cc1ccc(C(=O)O/N=C/c2ccc3c(c2)OCO3)cc1,i,-17,9,-3,.,-2,-2,-3
O=C(Nc1c2c(nn1-c1ccccc1)CS(=O)C2)c1ccco1 (stereo unspecified),i,-15,-11,-2,4,-3,2,-7
CC1CCCCC1NC(=O)COC(=O)c1ccc([N+](=O)[O-])o1 (stereo unspecified),.,-9,.,.,0,0,2,.
CCS(=O)(=O)N1Cc2ccccc2CC1C(=O)Nc1ccc(OC)cc1OC (stereo unspecified),i,-4,-6,-8,-5,-3,1,-16
CCN(CC(=O)NC1CCCC1)S(=O)(=O)c1ccc(F)cc1,i,-7,7,6,6,-2,0,-9
O=C(COc1ccc(F)cc1)c1ccc2c(c1)CCCC2,i,-10,.,-5,.,-1,-1,.
COc1ccc([N+](=O)[O-])cc1/C=N/NC(=O)/C(=C\c1cccs1)NC(=O)c1ccccc1,i,44,4,-9,-98,-2,-2,9
Cc1ccc(C(O)c2ncc(-c3ccccc3C)[nH]2)cc1 (stereo unspecified),.,-9,.,.,0,-2,3,.
Cc1cccc(N(C)S(=O)(=O)c2cc3c(cc2C)n(C)c(=O)c(=O)n3C)c1,i,-13,2,.,-16,1,3,7
Cc1oc(-c2cccs2)nc1CNC[C@H]1O[C@@H](n2cnc3c(N)ncnc32)[C@H](O)[C@@H]1O,.,-1,.,.,-19,-1,3,.
O=C(NC(=S)NC1CCSC1=O)c1ccccc1Cl (stereo unspecified),i,-17,-10,9,-8,2,0,1
COc1ccccc1CNC(=O)C(=O)NCC1OCCN1S(=O)(=O)c1cccs1 (stereo unspecified),i,.,4,-2,-18,.,.,-5
CC1CCCN(CCCNC(=O)c2cc3c(s2)-c2ccccc2OC3)C1 (stereo unspecified),?,1,-6,13,16,0,-2,9
CCN(CC)C(=O)CSc1nnc(-c2ccccc2)n1-c1ccccc1,i,-8,1,13,.,3,0,0
CC(C)CC(=O)NC(=S)Nc1ccc(S(=O)(=O)N2CCN(C)CC2)cc1,i,.,-7,-3,8,0,2,-8
CCOc1ccc(NS(=O)(=O)c2cc(NC(=O)CCC(=O)c3cccs3)ccc2Cl)cc1,i,.,22,12,4,-8,-14,-3
CC1CCN(S(=O)(=O)c2ccc3c(c2)CCN3C(=O)CCC(=O)O)CC1,i,-4,-4,0,-27,2,2,0
N#CCC(=O)NNC(=S)Nc1ccccc1C(F)(F)F,i,.,6,16,-2,7,-2,-7
O=C(NCc1ccc(F)cc1)c1ccc(CS(=O)(=O)c2ccc(Br)cc2)o1,i,-16,-3,-7,14,1,-11,13
C=CCn1c(SCCOc2ccccc2)nnc1C(C)NC(=O)c1ccccc1 (stereo unspecified),i,.,-1,-7,-3,2,1,5
CCOc1ccc2nc(/N=C/c3nc(-c4ccccc4)oc3O)sc2c1,i,.,-10,.,-21,3,0,2
O=C(Nc1ccc(F)cc1)Nc1nnc(-c2ccccc2)o1,i,-10,-6,-1,1,5,4,-11
CN(c1ccc(C(=O)N2CCCCC2)cc1)S(C)(=O)=O,i,-6,-6,-9,15,3,5,10
Cc1cc([N+](=O)[O-])nn1CCCC(=O)Nc1sc2c(c1C(N)=O)CCCC2,i,-16,-5,-12,12,7,4,-15
O=S(=O)(Nc1ncnc2sc3c(c12)CCC3)c1cc(F)ccc1F,i,-12,-1,6,1,0,-1,19
COc1ccc(OC)c(S(=O)(=O)Nc2cccc(C(C)=O)c2)c1,i,-30,4,3,16,1,0,-7
O=C(Nc1nnc(C2=COCCO2)o1)c1ccc(Cc2ccccc2)cc1,i,.,9,24,-2,4,7,-4
CCn1c(CC(=O)Nc2ccccc2)nnc1SCc1nc2ccccc2c(=O)[nH]1,i,-20,10,-10,-4,-7,-7,7
Cc1nn(C)c(C)c1S(=O)(=O)N(CC(=O)N1CCc2ccccc2C1)c1ccc(C(C)C)cc1,i,1,-5,11,36,-3,0,0
CCOC(=O)/C=c1\s/c(=C\c2ccccc2C)c(=O)n1CC(=O)NCc1ccc2c(c1)OCO2,i,.,-14,45,.,4,-6,-10
COc1ccc(CC(=O)Nc2cccnc2)cc1,i,-3,-1,-22,-10,5,4,11
O=C(N/N=C/c1ccc(F)cc1)c1ccc(Br)cc1,i,-14,-4,9,.,8,2,-4
O=C(N/C=N/OCc1ccc(Cl)cc1Cl)NOCc1ncc(C(F)(F)F)cc1Cl,i,-4,2,124*,.,-2,-11,-9
OC(COc1ccc(OCC(O)CN2CCCCCC2)cc1)CN1CCCCCC1 (stereo unspecified),i,6,-6,5,.,14,-2,14
C=CCNC(=O)c1ccccc1NS(=O)(=O)c1ccccc1,i,6,1,-16,.,-3,-1,-9
O=C(Nc1ncc(S(=O)(=O)c2ccc([N+](=O)[O-])cc2)s1)c1ccc2ccccc2c1,i,.,6,?,24,-2,-18,5
Cc1cccc(N(CC(=O)Nc2ccc(F)cc2)S(C)(=O)=O)c1,i,-19,-4,-6,-99,7,8,5
C=CCSc1nc(Oc2ccccc2)c2sccc2n1,i,-1,-8,23,.,6,0,0
Cc1ccc(C(CC(=O)NCc2ccco2)c2ccc(OC(C)C)cc2)cc1 (stereo unspecified),i,-11&1,.,9,-92,-6,-10,.
COCCNCC(=O)NCC12CC3CC(CC(C3)C1)C2,i,-34,-3,1,.,10,0,8
O=C(CN1C(=O)NC(Cc2c[nH]c3ccccc23)C1=O)Nc1cccc(S(=O)(=O)N2CCCCCC2)c1 (stereo unspecified),i,9,0,-10,.,3,-12,-4
Cc1c(C(=O)Nc2ccc(Nc3ccccc3)cc2)cccc1[N+](=O)[O-],i,-12,-16,54,-14,5,-7,-4
FCCCOc1ccc(/C=N/OCc2ccc(Cl)cc2)cc1,i,-7,3,3,.,-5,-1,2
O=C(NCc1ccc2c(c1)OCO2)C1CCCN(S(=O)(=O)c2cccc3cccnc23)C1 (stereo unspecified),i,-3,-9,15,6,1,-2,-6
CCOc1ccc(-n2c(-c3ccco3)n[nH]c2=S)cc1,i,-7,-4,-9,.,-1,1,-5

# Compound profiles (already shown). Order of screens: Rce1 inhib | Yeast UUG start | eIF4H FP inh | CSC inhib | Env fusion inh | MT1-MMP act inh | MT1-MMP act inh RFP | PABP FP inh
# Listed for FCCCOc1ccc(/C=N/OCc2ccc(Cl)cc2)cc1 → i | -7 | 3 | 3 | . | -5 | -1 | 2
# Listed for C=CCNC(=O)c1ccccc1NS(=O)(=O)c1ccccc1 → i | 6 | 1 | -16 | . | -3 | -1 | -9

# Continuation:
SMILES,Rce1 inhib,Yeast UUG start,eIF4H FP inh,CSC inhib,Env fusion inh,MT1-MMP act inh,MT1-MMP act inh RFP,PABP FP inh
CCOC(=O)c1c(-c2ccc(F)cc2)cn2ccccc12,i,-9,-9,-11,.,.,.,0
Cc1ccc(S(=O)(=O)CCC(=O)Nc2ccccc2C)cc1,i,-5,-1,-9,1,-3,3,24
COc1ccc(C(CNS(=O)(=O)c2ccccc2)N2CCN(C)CC2)cc1 (stereo unspecified),i,-11,.,.,2,-2,0,.
CCOc1ccccc1NC(=O)CCc1nnc2ccc(N3CCC(C)CC3)nn12,i,-13,-2,-9,-103,-1,0,-13
O=C(O)CSc1cc(C(F)(F)F)nc(-c2ccccn2)n1,.,-26,-4,5,-36,1,4,-9
CCCCCNCc1ccc(Cl)cc1,i,.,-14,.,9,1,0,4
CC1CC(C)CN(S(=O)(=O)N2CCCC(C(=O)NCCCN3CCCCC3C)C2)C1 (stereo unspecified),i,14,2,5,2,-6,1,9
O=C(C1CC(=O)N(C2CCCC2)C1)N1CCN(c2ccccc2)CC1 (stereo unspecified),i,-4,-1,-10,-7,0,1,10
CNC(=O)c1ccc(Oc2ccc(C(=O)NC)cc2)cc1,i,7,-4,-7,.,4,-1,-2
N#Cc1ccc(OCC(=O)N(C2CCCCC2)C2CCS(=O)(=O)C2)cc1 (stereo unspecified),.,-12,.,.,7,-3,-4,.
O=C(c1cc(-c2ccco2)nn1-c1cccc(Cl)c1)N1CCCCC1,i,-7,-3,-13,.,-2,4,-4
O=S1(=O)N[C@@H](CC2=CCCCC2)C2CCCCC2O1 (stereo partly specified),i,-31,5,18,-9,3,-3,6
COc1cc(/C=C2/CCc3ccccc3C2=O)cc(OC)c1OC,i,0,2,4,30,5,-11,1
Cc1ccc(N(CC(=O)NCc2ccc(F)cc2)C(=O)c2csnn2)cc1C,i,.,-6,-9,5,-1,-2,47
COc1ccc(C(=O)Nc2ccc(Br)cc2F)cc1S(=O)(=O)N1CCCC1,.,-6,.,.,7,2,-6,.
CC(C)(C)CC(C)(C)NC(=S)N1CCN(Cc2ccc3c(c2)OCO3)CC1,i,.,-6,-7,4,2,8,-2
COc1cc2c(cc1NC(=O)C(C)Sc1nc3ccccc3n1C)oc1ccccc12 (stereo unspecified),i,.,0,22,-3,1,-4,-5
O=C1CN(C(=O)COC(=O)[C@@H]2CC(O)CN2S(=O)(=O)c2ccc(Cl)cc2)c2ccccc2N1 (stereo partly specified),.,-18,.,.,20,5,1,.
Cc1ccccc1-n1nnc2c(=O)oc3ccccc3c21,i,6,-6,.,.,4,6,-4
CCCOC(=O)c1cc2ccccc2oc1=O,i,-14,3,-7,.,3,6,-3
CN(C)c1ccc(/C=C/C(=O)c2cc(Cl)ccc2O)cc1,i,.,?,43,-1,-18,14,?
c1ccc(-c2n[nH]c(-c3ccccn3)n2)nc1,i,-35&-42,14&4,-1&-1,-8,6&8,2&4,4&-3

# Arranged by molar mass (lowest first): ten of the compounds above
SMILES,Rce1 inhib,Yeast UUG start,eIF4H FP inh,CSC inhib,Env fusion inh,MT1-MMP act inh,MT1-MMP act inh RFP,PABP FP inh
c1ccc(-c2n[nH]c(-c3ccccn3)n2)nc1,i,-35&-42,14&4,-1&-1,-8,6&8,2&4,4&-3
CN(C)c1ccc(/C=C/C(=O)c2cc(Cl)ccc2O)cc1,i,.,?,43,-1,-18,14,?
COc1cc(/C=C2/CCc3ccccc3C2=O)cc(OC)c1OC,i,0,2,4,30,5,-11,1
O=C(c1cc(-c2ccco2)nn1-c1cccc(Cl)c1)N1CCCCC1,i,-7,-3,-13,.,-2,4,-4
N#Cc1ccc(OCC(=O)N(C2CCCCC2)C2CCS(=O)(=O)C2)cc1 (stereo unspecified),.,-12,.,.,7,-3,-4,.
CC(C)(C)CC(C)(C)NC(=S)N1CCN(Cc2ccc3c(c2)OCO3)CC1,i,.,-6,-7,4,2,8,-2
Cc1ccc(N(CC(=O)NCc2ccc(F)cc2)C(=O)c2csnn2)cc1C,i,.,-6,-9,5,-1,-2,47
COc1cc2c(cc1NC(=O)C(C)Sc1nc3ccccc3n1C)oc1ccccc12 (stereo unspecified),i,.,0,22,-3,1,-4,-5
COc1ccc(C(=O)Nc2ccc(Br)cc2F)cc1S(=O)(=O)N1CCCC1,.,-6,.,.,7,2,-6,.
O=C1CN(C(=O)COC(=O)[C@@H]2CC(O)CN2S(=O)(=O)c2ccc(Cl)cc2)c2ccccc2N1 (stereo partly specified),.,-18,.,.,20,5,1,.

# An excerpt; the hit share may differ from the screen's.
